Cruzain inh noDet: cruzain (T. cruzi) inhibition without detergent. Potency, µM, without a hit: max response, negative = inhibition, actives largely listed as inhibitors. purified cruzain, Z-FR-AMC fluorescence, no detergent. P25779. 200,000 compounds, 2.3% hits. AID 1476; active = well fitted curve in the direction sought with a large enough effect; inconclusive = small, poorly fitted or top-dose-only effect, or another doubt; inactive = no such curve, though single readings can be large; an effect the other way counts as inactive or inconclusive;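 also: plate controls were enzyme without inhibitor for no effect and buffer without enzyme for full effect; nearly all actives have a fitted effect of over 40% in size; top concentration of the series not given in the record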
Target sequence (P25779 123-467 limits assumed): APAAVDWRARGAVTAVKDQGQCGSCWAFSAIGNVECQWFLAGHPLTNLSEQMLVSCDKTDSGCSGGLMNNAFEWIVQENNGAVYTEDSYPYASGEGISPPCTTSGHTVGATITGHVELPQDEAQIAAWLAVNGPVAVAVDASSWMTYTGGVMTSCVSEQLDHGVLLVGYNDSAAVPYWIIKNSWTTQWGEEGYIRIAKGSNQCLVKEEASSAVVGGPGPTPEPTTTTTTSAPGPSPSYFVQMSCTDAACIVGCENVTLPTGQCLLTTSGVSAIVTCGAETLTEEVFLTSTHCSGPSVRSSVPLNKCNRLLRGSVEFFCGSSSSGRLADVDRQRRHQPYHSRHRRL
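Detergent-free condition (0.00005% Triton X-100) in acetate buffer pH 5.5 with DTT. 1.5 nM enzyme and compound were pre-mixed 15 min, then 2 uM Z-FR-AMC substrate added; reaction progress from fluorescence change between first and third reads (60 s).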
RE007 growth inh: less growth of the S. pombe RE007 Vpr strain | S. pombe RE007 Vpr strain, BacTiter-Glo ATP luminescence, 24 h; control for the full effect not named in the record | Potency, µM (top dose mostly 92.2 µM), without a hit: at the highest dose activity change, negative = less growth | 360,000 compounds, 0.21% hits | AID 651644; active = well fitted falling curve with a large enough effect; inconclusive = small, poorly fitted or top-dose-only effect; inactive = no such curve, though single readings can be large or run the other way;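 also: % is scaled to controls: 0 for no effect and ±100 for the full control effect; nearly all actives have a fitted effect of over 50% in size; the assay follows cell death caused by Vpr and the record does not say whether a fall means rescue or toxicity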
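Fission yeast RE007 carrying one integrated HIV-1 vpr copy, seeded at OD 0.01 in PMG+AL medium with 23 nL pinned compound. Grown 24 h at 30 degrees; viability read by BacTiter-Glo luminescence after 5 min.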
Lassa entry inh: Lassa virus entry inhibition | Lassa virus pseudotype entry inhibition, cell reporter; control for the full effect not named in the record | Potency, µM (doses to about 37.9 µM), without a hit: at the highest dose activity change, negative = inhibition, hits mostly inhibitors | 300,000 compounds, 1.2% hits; active means well fitted inhibition curve with a large enough effect; inconclusive means small, poorly fitted or top-dose-only effect, or effect the other way; inactive means flat fitted curve, though single readings scatter; tested in HEK293 cells; also: % is scaled to controls: 0 for no effect and ±100 for the full control effect; nearly all actives have a fitted effect of over 50% in size; luciferase read-out
Marburg entry inh: blocks Marburg virus binding to or entry into cells | Potency, µM (doses to about 37.8 µM), without a hit: top-dose activity change, negative = inhibition, actives largely listed as inhibitors | 300,000 compounds, 1.8% hits | Marburg virus pseudotyped entry inhibition, cell reporter; control for the full effect not named in the record; about a third of the inactives were read at about 46 µM; active = well fitted inhibition curve with a large enough effect; inconclusive = small, poorly fitted or top-dose-only effect, or effect the other way; inactive = flat fitted curve, though single readings scatter; tested in HEK293 cells; about a fifth of its hits are not listed in these tables; also: % is scaled to controls: 0 for no effect and ±100 for the full control effect; luciferase read-out
Cruzain inh Det: cruzain (T. cruzi) inhibition with detergent; P25779; purified cruzain, Z-FR-AMC fluorescence, 0.01% Triton; Potency, µM, for the others: max response, negative = inhibition, most hits filed as inhibitors; 200,000 compounds, 0.43% hits; AID 1478; active = well fitted curve in the direction sought with a large enough effect; inconclusive = small, poorly fitted or top-dose-only effect, or another doubt; inactive = no such curve, though single readings can be large; an effect the other way counts as inactive or inconclusive;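 also: plate controls were neutral wells for no effect and buffer without enzyme for full effect; nearly all actives have a fitted effect of over 40% in size; top concentration of the series not given in the record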
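Purified cruzain (1.5 nM final) was preincubated with compounds for 15 min at room temperature in 100 mM sodium acetate pH 5.5, 5 mM DTT, 0.01% Triton X-100. Reaction started with 2 uM Z-FR-AMC; AMC fluorescence change over 60 s gave activity.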
StopGo reporter: FMDV 2A StopGo reporter, luciferase signal | human cells with a luciferase reporter of 2A StopGo recoding; control for the full effect not named in the record | Potency, µM (top dose mostly 57.9 µM), for the others: at the highest dose signal change, negative = less light | 410,000 compounds, 1.2% hits; active = well fitted falling curve with a large enough effect; inconclusive = small, poorly fitted or top-dose-only effect; inactive = no such curve, though single readings can be large or run the other way; tested in HEK293T cells; also: % is scaled to controls: 0 for no effect and ±100 for the full control effect; nearly all actives have a fitted effect of over 45% in size; luciferase light after 4 h
SARS PLpro yeast: blocks SARS-CoV papain-like protease in a yeast assay; S. cerevisiae expressing SARS-CoV PLpro, growth rescue; control for the full effect not named in the record; 330,000 compounds, 0.19% hits; Potency, µM (titrated, usually from 32.9 µM), for inactives: at the top dose activity, positive = growth rescue; AID 485353; also: 0% is about no effect; nearly all actives have a fitted effect of over 55% in size; growth read by luminescence after 48 h
NS1 inh: blocks influenza NS1 protein function; Potency, µM (doses to about 46.1 µM), for inactives: at the highest dose activity, positive = more growth; 270,000 compounds, 0.4% hits; S. cerevisiae slowed by influenza A NS1, growth recovery by OD600; also: actives are rising curves; nearly all actives have a fitted effect of over 50% in size
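A cell-based growth assay was used: compounds that relieve NS1-induced slow growth of budding yeast raise OD600. Assay medium was yeast nitrogen base with ammonium sulphate and -URA supplement, pH 6.0, with 2% galactose.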
* hit, by the source's call; ? = inconclusive; . = no result given; & = joins results of further samples; [ ] = another dose, or the depositor's remark. Unless noted, calls follow the shape of the dose curve; as a rule, active means well fitted rising curve with a large enough effect; inconclusive means small, poorly fitted or top-dose-only effect; inactive means no such curve, though single readings can be large or run the other way. Potency is read from the fitted curve at half-maximal effect.

Order of results – NS1 inh, Cruzain inh noDet, Marburg entry inh, Cruzain inh Det, SARS PLpro yeast, RE007 growth inh, Lassa entry inh, StopGo reporter
- O=C(NCCCN1CCOCC1)c1cc(-c2ccc(Cl)c(Cl)c2)on1
 : -11%, ., 2%[46.1 µM], ., 0%, -14%, 4%[46.1 µM], 9%
- C/C(=N\NC(=O)c1nnn(-c2nonc2N)c1C(C)C)c1ccncc1
 : 5%, ., ?, ., 0%, -3%, -14%[46.1 µM], -21%
- O=C1CN(C(=O)c2ccccc2F)C(c2ccccc2)c2cc(Cl)ccc2N1 (stereo unspecified)
 : -2%, ., ., ., 1%, -19%, ., 6%
- Cc1ccc2cc3c(NC(=O)CC(C)C)nn(C)c3nc2c1
 : -12%, ?, ?, -5.1%, -10%, -14%, -13%, 0%
- O=C(O)CN1CCN(Cc2cccc(Cl)c2)C1=O
 : 4%, ., ?, ., -1%, 3%, 4%[46.1 µM], -18%
- O=c1c2ccccc2[nH]c(=S)n1CCCN1CCC(Cc2ccccc2)CC1
 : 0%, ., ., ., 2%, 1%, ., -13%
- CCC(C(=O)O/N=C(\N)c1ccc(Cl)cc1)c1ccccc1 (stereo unspecified)
 : 1%, 1%, -8%[46.1 µM], -6.9%, -35%, 0%, 3%, 16%
- COc1ccc(-c2nc3ccccc3s2)cc1NC(=O)c1ccccc1OC
 : ., 7%, ?, -0.8%, ., ., 7%[46.1 µM], 38%[activator]
- Cc1cc(SCC(=O)NCc2ccccc2Cl)nc(=O)[nH]1
 : ., -10%, ., -1.3%, ., ., 6%[46.1 µM], -6%
- CCn1c(=O)c(C(=O)NNC(=O)c2ccccc2)c(O)c2ccccc21
 : -68%, ., ?, ., -7%, -27%, -24%, -3%
- O=C(Nc1ccccc1C(=O)NCCCN1CCOCC1)c1ccc(F)cc1
 : 7%, ., ., ., 3%, -4%, ., 1%
- Cc1nc(SCCOc2ccc(Cl)cc2)[nH]c(=O)c1Cc1ccccc1
 : ., -8%, ., -2.6%, ., ., 4%[46.1 µM], -17%
- COc1cccc(CNC(=O)c2cccc(NC(=O)c3nsc4ccccc34)c2)c1
 : ., ?, ., -1.8%, ., ., ?, 3%
- O=C(NCc1cccnc1)c1cnc2ccccc2n1
 : 5%, ., -17%[14.2 µM], ., 0%, 4%, 4%, -9%
- COc1ccc2c(C)cc(SCn3nnc4ccccc4c3=O)nc2c1
 : 8%, 8%, -2%, -4.4%, -1%, 5%, -3%, -15%
- CC/C(=N\N1CCCCCC1)c1c(O)n(-c2ccc(C)cc2)c(=O)[nH]c1=O
 : 2%, 4%, 11%, -4.7%, -14%, 19%, 0.4µM*, 0%
- COc1ccc(NC(=O)CN2C(=O)COc3ccc(S(=O)(=O)N4CCCCC4)cc32)cc1Cl
 : ., -6%, ., -6.2%, ., ., -18%[46.1 µM], 8%
- CC(C)c1ccc(C(=O)CN2C(=O)NC3(CCc4ccccc43)C2=O)cc1 (stereo unspecified)
 : ., ., -5%, ., 4%, 16%, -24%, -15%
- O=C(COC(=O)C1=COCCO1)Nc1ccc(Oc2ccccc2)cc1
 : -11%, -4%, -1%, -4.5%, -12%, 1%[3.69 µM], ?, 23%
- Cc1cc(C)n(-c2nc3c(c(=O)[nH]c(=O)n3C)n2CC(O)COc2ccc(Cl)cc2Cl)n1 (stereo unspecified)
 : -1%, ?, ?, -3.1%, 5%, -1%, ?, 15%
- CCOc1ccccc1NC(=O)c1c(NC(=O)CNCc2ccco2)sc2c1CCC2
 : 10%, 10µM*, -2%, -0.7%, 0%, ., ., .
- O=C(C1CCCCC1)N1CCC(c2nc3c(nnn3Cc3ccccc3Cl)c(=O)[nH]2)CC1
 : 0%, ., -2%, ., ., 14%, ., 4%
- COc1ccc(S(=O)(=O)N(CC(C)C)C2CCS(=O)(=O)C2)cc1OC (stereo unspecified)
 : ., ., 7%, ., -6%, 5%, 6%, -4%
- Cc1cc(Br)cc(C)c1NC(=O)c1sc2ncn(Cc3cccc(F)c3)c(=O)c2c1C
 : ., 5%, ., -2.4%, ., ., -6%[46.1 µM], -24%
- CCC(=O)N=c1sc2c(C)cc(C)cc2n1CC(=O)OC
 : 0%, 14%, ., 4.8%, 9%, 3%, ., -27%
- Cc1csc2nc3cc(C(N)=O)ccc3c(=O)n12
 : 2%, ., ., ., 0%, -20%, ., -16%
- COC(=O)[C@@H]1C(c2ccccc2)(c2ccccc2)[C@@]1(C)C(=O)OC
 : 21%, 1%, ?, -4.3%, 0%, -2%, ?, -29%
- Cc1ccc(NC(=O)COC(=O)C2CCC(=O)N2)c(S(=O)(=O)N2CCOCC2)c1 (stereo unspecified)
 : -1%, -7%, 4%, 2.6%, -3%, 2%, 9%, 0%
- CNC(=S)NNC(=O)Cc1ccc(OC)c(OC)c1
 : 1%, -5%, 11%, 6.7%, 6%, 8%, 15%, 8%
- COc1ccccc1C(=O)Nc1ccc(-c2nnc(SCC(=O)O)n2C)cc1
 : ?, 0%, 1%, -1.7%, 3%, 5%, 18%, 7%

Shown in markdown: part of the list above.
| SMILES | NS1 inh | Cruzain inh noDet | Marburg entry inh | Cruzain inh Det | SARS PLpro yeast | RE007 growth inh | Lassa entry inh | StopGo reporter |
| --- | --- | --- | --- | --- | --- | --- | --- | --- |
| CNC(=S)NNC(=O)Cc1ccc(OC)c(OC)c1 | 1% | -5% | 11% | 6.7% | 6% | 8% | 15% | 8% |
| COc1ccccc1C(=O)Nc1ccc(-c2nnc(SCC(=O)O)n2C)cc1 | ? | 0% | 1% | -1.7% | 3% | 5% | 18% | 7% |

(listing goes on)
Order of results – NS1 inh, Cruzain inh noDet, Marburg entry inh, Cruzain inh Det, SARS PLpro yeast, RE007 growth inh, Lassa entry inh, StopGo reporter
- Cc1ccc(C(=O)N2CCCc3ccccc32)c(F)c1F
 : -34%, ., ., ., -1%, -2%, ., 19%
- CCC(CC)C(=O)Nc1c(C)n(C)n(-c2ccccc2)c1=O
 : 0%, 0%, 1%[46.1 µM], -0.6%, -11%, -8%, 10%, 15%
- Cc1cn2nc(N)c3ccccc3c2n1
 : -4%, 17%, 2%[46.1 µM], 5.2%, -4%, 3%, -7%, -6%
- Cc1cc(C(=O)N/N=C/c2cc([N+](=O)[O-])cc(C)c2O)n[nH]1
 : -48%, -19%, ?, -7.7%, 4.5µM*, -12%, ?, 3%
- Cc1ccc(NC(=O)CC2SC(=O)N(c3ccccc3)C2=O)cc1 (stereo unspecified)
 : 8%, ?, 10%, ?, -40%, -27%, 6%, ?
- CCN(CC)C(=O)c1ccc(NC(=O)CSc2nnnn2-c2cc(OC)ccc2OC)cc1
 : -8%, 14%, ?, -1.7%, 9%, -1%, ?, .
- O=C(c1cc(F)ccc1F)C1CCCN(C(=O)CSc2ccccn2)C1 (stereo unspecified)
 : 0%, ., ., ., -1%, 3%, ., 6%
- CCCCOC(=O)Nc1ccc(C)c(Cl)c1
 : -13%, -8%, -22%&-22%[46.1 µM], -6.6%, -6%, ?, ?, 16%
- CCC(C)(C)C1CCC(=NNC(=O)c2ccc(Br)o2)CC1 (stereo unspecified)
 : -7%, -16%, 13%, -2.8%, -5%, 15%, ?, -9%
- CCc1c(C)sc2c1CCN(C(=O)Nc1cc(C)cc(C)c1)C2c1ccccc1 (stereo unspecified)
 : ., -12%, ., -1.0%, ., ., -1%[46.1 µM], -30%
- COc1ccc2c(c1)-c1nc(NC(=O)c3ccc(OC)c(Br)c3)sc1CC2
 : ., 10µM*, -33%[46.1 µM], -8.2%, ., ., -26%[46.1 µM], 0%
- O=C1C(Nc2ccccc2)=C/C(=N/S(=O)(=O)c2cccs2)c2ccccc21
 : -41%, ?, 4.1µM*, -6.2%, -76%, ?, ?, ?
- CCc1cccc(C)c1NC(=O)C1CCN(S(=O)(=O)Cc2ccccc2)CC1
 : ., 4%, -26%[46.1 µM], -4.9%, ., ., 10%[46.1 µM], -14%
- COc1ccc(C(=O)CSc2nnc(-c3ccc(S(=O)(=O)N4CCOCC4)cc3)o2)cc1
 : 4%, 22%, -6%&-31%, 2.0%, 15%, 14%[3.69 µM], -11%, -15%
- CCn1c(=O)c2cc(C(=O)NCCCN(C)Cc3ccccc3)sc2c2ccccc21
 : ., -4%, ?, -4.7%, ., ., 19%[46.1 µM], -28%
- Cc1nc2ccccc2c(=O)n1NC(=O)C1CCC(C(C)(C)C)CC1 (stereo unspecified)
 : ., ., -16%[46.1 µM], ., -2%, 6%, ?, 0%
- CC1=NN(C(=O)c2ccc(Br)cc2)C(O)(c2ccccc2)C1 (stereo unspecified)
 : -1%, ., -8%[46.1 µM], ., -3%, 16%, -6%[46.1 µM], 2%
- CC(=O)Nc1ccc(NC(=O)C/C(C)=N/NC(=O)C(=O)Nc2ccc(C)c(Cl)c2)cc1
 : 3%, ., 4%[46.1 µM], ., -1%, ?, 14%[46.1 µM], 12%
- Cc1ccc(CNC(=O)C2C3C=CC4(CN(Cc5cccnc5)C(=O)C24)O3)cc1 (stereo unspecified)
 : 0%, 2%, 0%[46.1 µM], 3.1%, 2%, -18%, 2%, -11%
- O=C(CCSCc1ccc(Cl)cc1)NCCC1=CCCCC1
 : -9%, 11%, -2%, -7.8%, -29%, -11%, 16%, -20%
- COc1ccc(/C=N/NC(=O)c2ccc3c(c2)OCO3)c(C(=O)O)c1OC
 : 25%, ., ., ., 4%, 29%, ., -3%
- Cc1cc(NC(=O)/C=C/c2ccco2)ccc1NC(=O)c1ccccc1
 : ?, ., 1%[46.1 µM], ., 0%, 9%, 1%[46.1 µM], -5%
- Cc1ccc(CSc2nc3ccccc3cc2C=O)cc1
 : -76%, 8%, ?, 0.5%, -9%, -2%, ?, ?
- COc1ccc(NC(=O)Nc2cc3oc4ccccc4c3cc2OC)cc1
 : -1%, ?, 3%, 10%, -16%, 0%, -3%, 19%
- Cc1nc2ccccc2nc1OCC(=O)Nc1ccc(F)cc1
 : ., ., 3%[46.1 µM], ., 2%, 5%, 5%, 7%
- CCCc1c(C(=O)Nc2cc(C)on2)cnn1-c1ccccc1
 : 1%, ., -5%, ., -1%, 15%, -16%, 1%

Screening data (PubChem BioAssay)
